Compound activity: PubChem, National Center for Advancing Translational Sciences (NCATS)
gsp antag: gsp mutant antagonism; gsp-mutant cells, cAMP HTRF, 30 min; control for the full effect not named in the record; Potency, µM (series often up to 76.9 µM), for the others: at the top dose activity change, negative = inhibition, usual class: inhibitors; 340,000 tested, 0.4% active; AID 624288; active = falling curve of any shape with a large fitted effect; inconclusive = falling curve, mostly with a smaller effect; inactive = flat or rising curve; cell line not stated here;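 also: intracellular cAMP measured with PDE inhibitor Ro 20-1724 present during compound exposure; potency is read from the fitted curve at half-maximal effect; % is scaled to controls: 0 for no effect and ±100 for the full control effect; nearly all actives have a fitted effect of over 65% in size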
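G418-selected cells were plated in DMEM/10% FBS for 16-24 h at 37C, then treated with compounds plus the PDE inhibitor […] (300 uM solution added) for 30 min at 37C. Intracellular cAMP was measured by HTRF after 30 min lysis at room temperature.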
CtBP-E1A blk: CtBP/E1A binding inhibition. AID 651724. activity change, % (concentration not given with the values). AlphaScreen GST-E1A/His-CtBP binding, 1536-well; active compounds read low; control for the full effect not named in the record. 340,000 tested, 0.49% active; in the data active means activity change below about -65%; inconclusive means about -30% to -65%; inactive means above about -30%; also: % is scaled to controls: 0 for no effect and ±100 for the full control effect
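Homogeneous bead-based format: GST-tagged E1A captured on glutathione donor beads, His-tagged CtBP on nickel acceptor beads; compounds precede bead addition by 2 h at 37 °C.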
D2 PAM: human D2 receptor positive allosteric modulation | 360,000 tested, 0.23% active | AID 624464 | P14416 | DiscoveRx D2 beta-arrestin cells, luminescence, 90 min; 100% = 57 uM dopamine signal | potentiation, % (concentration not given with the values); active = potentiation of 50% or more; inconclusive = 30% to 50%; inactive = 30% or less;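 also: compound concentration not given in the record; tested on top of an EC20 dose of dopamine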
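D2 cells co-treated with compound plus 50 nM dopamine (EC20) for 90 min at 37 deg C to detect potentiation. Beta-arrestin recruitment was read as enzyme-fragment luminescence after 1 h at ambient temperature. Full response was set by 57 uM dopamine.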
Six1-Eya2 inh: blocks human Six1 binding to Eya2 | Q15475+O00167 | AlphaScreen GST-Six1/His-Eya2 binding, biochemical; active compounds read low; control for the full effect not named in the record | activity change, % (concentration not given with the values) | 360,000 tested, 0.56% active | AID 651725; in the data active = activity change below about -65%; inconclusive = about -30% to -65%; inactive = above about -30%; also: % is scaled to controls: 0 for no effect and ±100 for the full control effect
Target sequence (O00167 whole entry, looked up): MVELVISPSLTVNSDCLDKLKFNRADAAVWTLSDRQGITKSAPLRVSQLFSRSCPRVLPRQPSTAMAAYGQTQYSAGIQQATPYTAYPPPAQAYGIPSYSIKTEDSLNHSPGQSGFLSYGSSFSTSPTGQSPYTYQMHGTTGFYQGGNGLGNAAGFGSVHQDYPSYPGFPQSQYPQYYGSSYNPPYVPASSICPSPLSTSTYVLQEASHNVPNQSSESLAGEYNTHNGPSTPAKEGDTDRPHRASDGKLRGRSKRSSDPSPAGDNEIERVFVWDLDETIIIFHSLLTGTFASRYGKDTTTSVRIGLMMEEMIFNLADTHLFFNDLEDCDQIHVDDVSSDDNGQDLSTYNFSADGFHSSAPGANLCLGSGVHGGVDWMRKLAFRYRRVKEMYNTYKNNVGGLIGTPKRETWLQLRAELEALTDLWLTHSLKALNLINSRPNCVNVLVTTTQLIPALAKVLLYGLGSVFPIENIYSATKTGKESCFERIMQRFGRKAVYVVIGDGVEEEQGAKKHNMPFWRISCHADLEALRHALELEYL
Target sequence (Q15475 whole entry, looked up): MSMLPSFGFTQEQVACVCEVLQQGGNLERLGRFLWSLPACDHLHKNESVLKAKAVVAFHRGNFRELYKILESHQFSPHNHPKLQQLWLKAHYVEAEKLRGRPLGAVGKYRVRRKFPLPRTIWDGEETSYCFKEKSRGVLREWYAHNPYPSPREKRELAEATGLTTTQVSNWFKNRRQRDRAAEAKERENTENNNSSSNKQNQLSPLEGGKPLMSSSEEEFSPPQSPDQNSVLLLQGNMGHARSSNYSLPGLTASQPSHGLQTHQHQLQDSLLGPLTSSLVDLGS
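Compounds are tested against tagged Six1 and Eya2 proteins bridged by glutathione donor and nickel acceptor beads; after a one-hour incubation at 37 °C without light, AlphaScreen emission is recorded.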
D2 ag: agonists of human D2 dopamine receptor (beta-arrestin) | P14416 | DiscoveRx PathHunter D2 beta-arrestin, luminescence, 90 min; 100% = 57 uM dopamine signal | activation, % (concentration not given with the values) | 360,000 tested, 0.084% active | AID 624465; in the data active = activation above about 40%; inconclusive = about 15% to 40%; inactive = below about 15%; also: compound concentration not given in the record; the text of the record calls up to 30% inactive
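DiscoveRx PathHunter D2 beta-arrestin cells (2,100/well) attached overnight, then compound-stimulated 90 min at 37 C in HBSS/10 mM HEPES/0.1% Tween-20 buffer; beta-galactosidase complementation read by luminescence after 1 h at ambient temperature. Dopamine 57 uM final (EC100) as control.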
gsp ag: gsp mutant agonism; 340,000 tested, 0.13% active; Potency, µM (doses to about 76.9 µM), without a hit: at the top dose activation (cAMP increase), most hits filed as activators; gsp mutant cells, cAMP HTRF, 30 min; control for the full effect not named in the record; active = well fitted activation curve with a large enough effect; inconclusive = small, poorly fitted or top-dose-only effect, or another doubt; inactive = no such curve, though single readings can be large or run the other way; cell line not stated here;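 also: phosphodiesterase inhibitor Ro 20-1724 added with compounds to block cAMP breakdown; potency is read from the fitted curve at half-maximal effect; nearly all actives have a fitted effect of over 60% in size; about a fifth of the inactives were tested at one dose only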
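Cells stably selected in G418 were plated at 2000/well, grown 16-24 hr, then given compounds in DMSO with the PDE inhibitor […] (300 uM solution added) for 30 min at 37C; cAMP was read by HTRF.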
* = called active by the depositor; ? = inconclusive; . = no result given; [ ] = remark or other dose.

SMILES | gsp antag | CtBP-E1A blk | D2 PAM | Six1-Eya2 inh | D2 ag | gsp ag
O=C(O)c1ccc(CNS(=O)(=O)c2ccc(Oc3ccccc3Cl)cc2)cc1 | -12% | -8 | 2 | 3 | -3.7 | 1%
O=C(Nc1nc(-c2ccccc2)cs1)C1c2ccccc2Oc2ccccc21 | -8% | 0 | 9 | -2 | 0.4 | ?
CCNC(=S)NC1CC2CCC(C1)N2Cc1ccccc1 (stereo not given) | 7% | 0 | -27 | 0 | 2.1 | -57%[inhibitor]
CC(=O)c1ccc(N2CCN(S(=O)(=O)c3c(C)[nH]c(C)c3C(=O)N3CCCCC3)CC2)cc1 | -14% | -7 | -6 | -2 | -8.6 | 18%
NC(=O)c1nsc(C(=O)N(Cc2ccco2)C(C(=O)NCC2CCCO2)c2ccc(O)cc2)c1N (stereo not given) | -15% | -11 | 3 | -7 | 8.6 | 7%[15.4 µM]
COC(=O)c1c(NC(=O)CC2NCCNC2=O)sc2c1CCCC2 (stereo not given) | 0% | 4 | -2 | -1 | -1.0 | 10%
O=C(N/N=C/c1cccc([N+](=O)[O-])c1)c1cnccn1 | 13% | -4 | 7 | -14 | -1.0 | 9%
O=C1C2C3c4ccccc4C(c4ccccc43)[C@@H]2C(=O)N1c1cccnc1 (stereo not given in full) | 8% | -12 | 12 | -1 | -5.2 | 11%[15.4 µM]
CCN(CC)CCN(Cc1cc2cc(C)cc(C)c2[nH]c1=O)C(=S)NCc1ccco1 | 8% | 11 | -17 | 17 | -5.2 | 0%
CN1CCN(S(=O)(=O)c2cccc(C(=O)N(Cc3nnc(-c4ccccc4Cl)o3)C3CC3)c2)CC1 | -10% | 1 | -19 | -6 | -0.3 | ?
C/C(=N/NS(=O)(=O)c1cc(C)ccc1C)c1c[nH]c2ccccc12 | -15% | 0 | 3 | 3 | 2.5 | -67%[inhibitor]
O=C(OCC(=O)N1CCC(Cc2ccccc2)CC1)c1ccc(CO)cc1 | -3% | -3 | 7 | -3 | -1.3 | 11%
COc1ccc(OC)c(NC(=O)CCCSc2ccccc2)c1 | -8% | 0 | 4 | 7 | 1.2 | 0%[15.4 µM]
Cc1cc(C)cc(NC(=S)NC(=O)C2CC2)c1 | -4% | 0 | -27 | 3 | 0.3 | -3%
CCOC(=O)/C(C#N)=C/c1c(OCC)n(CC)c2ccccc12 | ? | -6 | -28 | 0 | -1.1 | 18%
O=C(CC1OC(=O)c2ccccc21)NCC1COc2ccccc2O1 (stereo not given) | 11% | 2 | -24 | 3 | -0.4 | -37%[inhibitor]
COc1ccc(N2CCN(C(c3ccco3)c3sc4nc(C)nn4c3O)CC2)cc1 (stereo not given) | -3% | . | -5 | 5 | -7.0 | -32%[inhibitor]
O=C(Nc1cccc(S(=O)(=O)NC2=NCCCCC2)c1)c1cccnc1Cl | 7% | 5 | 1 | 5 | -1.6 | -12%
CC(NC(=O)CCc1ccccc1)c1ccc2c(c1)OCO2 (stereo not given) | -2% | 0 | -14 | 2 | -4.2 | 16%
CC(C)N(C(=O)CSc1nc2ccccc2n1Cc1ccccc1F)C(C)C | -14% | -2 | -3 | -1 | -5.2 | 0%
COc1ccc(OC)c(-c2cc(C(=O)Nc3cc(C)on3)no2)c1 | 19% | 3 | -19 | 3 | -1.6 | 31%
COc1cccc(-n2c(SCc3cc(=O)oc4cc(O)c(O)cc34)nc3ccccc3c2=O)c1 | 21% | -2 | -3 | -24 | -2.1 | 18%
O=C(O)COc1ccccc1/C=N/NC(=O)/C(=C\c1ccc2c(c1)OCO2)NC(=O)c1ccccc1 | -28% | -4 | -10 | -7 | -1.5 | -14%
Cc1ccc(C(=O)N/C(=C/c2ccc(Cl)cc2)C(=O)NCC2CCCO2)cc1 (stereo not given) | 6% | -2 | -4 | -10 | -1.1 | -18%
COc1ccc(C)cc1NC(=O)c1ccoc1C | 7% | 0 | 5 | 0 | -0.9 | 19%

The last 5 records of the part before come first, to join the parts:
SMILES | gsp antag | CtBP-E1A blk | D2 PAM | Six1-Eya2 inh | D2 ag | gsp ag
COc1ccc(OC)c(-c2cc(C(=O)Nc3cc(C)on3)no2)c1 | 19% | 3 | -19 | 3 | -1.6 | 31%
COc1cccc(-n2c(SCc3cc(=O)oc4cc(O)c(O)cc34)nc3ccccc3c2=O)c1 | 21% | -2 | -3 | -24 | -2.1 | 18%
O=C(O)COc1ccccc1/C=N/NC(=O)/C(=C\c1ccc2c(c1)OCO2)NC(=O)c1ccccc1 | -28% | -4 | -10 | -7 | -1.5 | -14%
Cc1ccc(C(=O)N/C(=C/c2ccc(Cl)cc2)C(=O)NCC2CCCO2)cc1 (stereo not given) | 6% | -2 | -4 | -10 | -1.1 | -18%
COc1ccc(C)cc1NC(=O)c1ccoc1C | 7% | 0 | 5 | 0 | -0.9 | 19%
O=C(NC1(Cc2ccccc2)CCN(Cc2ccc(-c3ccccc3)cc2)C1=O)c1ccccc1 (stereo not given) | ? | 3 | -1 | -7 | -8.8 | -17%
COc1ccccc1N1CCN(CC(=O)Nc2ccc(S(=O)(=O)N3CCCCCC3)cc2)CC1 | -27% | -11 | -8 | -5 | 10 | 18%
COc1ccccc1N=C1SCC(=O)N1c1ccccc1OC | 9% | 8 | -24 | 9 | -1.8 | -8%
O=C(CSCc1nc2scc(-c3cccs3)c2c(=O)[nH]1)Nc1ccccn1 | -5% | -6 | 9 | -3 | 1.9 | -4%
CCn1c(Oc2ccccc2F)nc2c1c(=O)n(C)c(=O)n2C | 3% | -8 | -1 | -3 | -1.2 | -20%
Cc1ccc(CN2CCN(/N=C\C(Br)=C\c3ccccc3)CC2)cc1 | -11% | -18 | -24 | -12 | -3.9 | 4%[15.4 µM]
CC(C)(C)S(=O)N1Cc2cc(C(=O)NCc3ccc4c(c3)OCO4)nc(-c3cccc(-c4cc5ccccc5o4)c3)c2[C@@H]1CCO (stereo not given in full) | . | -13 | 12 | -10 | 6.8 | .
CN(C)/C(=N\S(=O)(=O)c1ccccc1)c1ccccc1 | 2% | 3 | -10 | 7 | -5.0 | 6%[15.4 µM]
Cc1c(NC(=O)NCCN2C(=O)C3C4C=CC(C4)C3C2=O)c(=O)n(-c2ccccc2)n1C (stereo not given) | -1% | 8 | -5 | 1 | -1.5 | 3%
Cc1ccc(-n2nnnc2SCC(=O)Nc2sc(C)c(C)c2C#N)cc1C | -8% | 9 | 7 | 0 | -1.6 | -7%
Cc1ccc(S(=O)(=O)NCCC(=O)NC2CCC(C)CC2)cc1 (stereo not given) | 2% | 8 | -1 | -2 | 0.0 | -25%
COc1ccc(CNC(=O)C2CCN(S(=O)(=O)c3ccc4c(c3)CC(C)N4C(C)=O)CC2)cc1 (stereo not given) | -13% | 1 | -10 | 0 | 2.0 | -12%
COc1ccc(S(=O)(=O)N=C2C=C(C)C(=O)C(C)=C2)cc1 | -5% | 1 | 4 | 0 | 2.0 | 21%
Cc1cc(C(=O)NNC(=O)c2nn(C)c(=O)c3ccccc23)c(C)o1 | 3% | 3 | -3 | -7 | -4.4 | 21%
Cc1ccc(CNS(=O)(=O)NCc2ccc(Cl)cc2)cc1 | -11% | . | -8 | 7 | -2.4 | -28%
Cc1ccc([N+](=O)[O-])c(OCC(O)CNC(C)(C)C)c1 (stereo not given) | 0% | . | -28 | 4 | -3.8 | 3%
Cc1nn(S(=O)(=O)c2ccc(C(C)(C)C)cc2)c(C)c1S(=O)(=O)N1CCOCC1 | 10% | 6 | -4 | 5 | -1.7 | ?
COc1ccc2cc(CCNC(=O)c3cc4ccccc4o3)c(=O)[nH]c2c1 | ? | -2 | 8 | -3 | 4.6 | 24%
CC1(C)CC(NC(=O)C(C)(C)Oc2ccc(Cl)cc2)CC(C)(C)N1 | 10% | 9 | -6 | 5 | -3.3 | 18%[15.4 µM]
O=C(c1ccco1)N1CCN(C(c2cccs2)c2nnnn2C2CCCCC2)CC1 (stereo not given) | -5% | 7 | -23 | -3 | -2.6 | -41%[inhibitor]
COc1ccccc1OCc1nc(-c2cccc([N+](=O)[O-])c2)no1 | -12% | -8 | 1 | 3 | 4.8 | 1%
Cc1cc(C)n2ncc(C(=O)NCc3cccnc3)c2n1 | -8% | -2 | -16 | -9 | 2.1 | 20%
CCCCOC(=O)Nc1ccc(N2CCOCC2)cc1 | -7% | -4 | -2 | -3 | -3.9 | -17%
O=C(/C=C/c1c(F)cccc1Cl)NCc1ccco1 | -1% | -12 | -6 | 2 | -2.7 | -2%
O=C(COc1ccc2ccc(=O)oc2c1)NC1CCCC1 | 11% | 0 | -5 | -10 | -1.5 | 10%
SMILES | gsp antag | CtBP-E1A blk | D2 PAM | Six1-Eya2 inh | D2 ag | gsp ag
CC(NC(=O)COC(=O)c1cc(S(=O)(=O)N2CCOCC2)ccc1F)c1ccccc1 (stereo not given) | -3% | 4 | -5 | 2 | -0.7 | 13%[15.4 µM]
CC(C)N(Cc1ccccc1)C(=S)NC(=O)C1(C)CC1(Cl)Cl (stereo not given) | 1% | 0 | -4 | -3 | -3.8 | 1%[15.4 µM]
Cc1onc(-c2ccccc2)c1C(=O)OCC(=O)N1CCC(C)CC1 | 2% | -1 | -5 | 3 | 5.3 | -30%[inhibitor]
Cc1cccc(NC(=O)Nc2cnccn2)c1 | -4% | . | -9 | 4 | 1.0 | 8%
COc1ccc(S(=O)(=O)NC(N)=NCCc2ccccc2OC)cc1 | -4% | 5 | -11 | 12 | 0.9 | 3%[15.4 µM]
CCCc1nc(SCc2ccccc2Cl)n[nH]1 | 13% | 9 | -3 | -1 | -3.4 | ?
CC(C)[C@H]1C=C(C(=O)O)O[C@@H](OCc2ccc(CO)cc2)C1 | 4% | -3 | -12 | -5 | -5.1 | .
COc1ccc(N2C(=O)C3CCCN3C2c2ccc(C)cc2)cc1Cl (stereo not given) | 37% | 4 | -11 | 0 | -2.7 | 6%
COc1ccc(-c2cc(C(=O)N(C)CC(=O)Nc3ccccc3C(F)(F)F)c3ccccc3n2)cc1OC | -18% | . | ? | 21 | ? | 1%
C/C(=N/Nc1ccc(F)cc1)c1ccc(Cl)s1 | 8% | 0 | 24 | -2 | 9.9 | -3%[15.4 µM]
COc1cccc(CN(C)S(=O)(=O)c2cccs2)c1 | 1% | 11 | -4 | 9 | -2.7 | -2%
CCN(CC)C(=O)N1CCN(C(=O)N2CCOCC2)CC1 | 25% | 2 | -7 | 5 | -0.8 | 2%
COC(=O)c1ccc(CNC(=O)C2CCC(=O)N(CCc3ccccc3)C2)cc1 (stereo not given) | -2% | -2 | -2 | 1 | -2.1 | 11%
CCc1ccc2c(c1)/C(=N/N(C)C(=S)NC)C(=O)N2 | -28% | -16 | -6 | -14 | -4.0 | -17%
CCCc1cc(=O)oc2cc(OC(=O)CN3C(=O)NC4(CCCC4)C3=O)ccc12 | 5% | -9 | -35 | 2 | -8.9 | -1%
COc1ccc(N2C(=O)c3ccccc3NC2c2ccc(OC)c(Cn3cc([N+](=O)[O-])cn3)c2)cc1 (stereo not given) | ? | -5 | -1 | -8 | -4.3 | 4%
CCSc1nnc(NC(=O)c2ccccn2)s1 | -7% | -91* | -18 | -94* | -2.6 | 4%
